Compound activity deposited in PubChem BioAssay by National Center for Advancing Translational Sciences (NCATS).
Vaccinia mCherry = qHTS for Stage-Specific Inhibitors of Vaccinia Orthopoxvirus: mCherry Reporter Primary qHTS. Vaccinia virus mCherry reporter infection, fluorescence; about a quarter of the inactives have no number. Potency, µM (top dose mostly 36.5 µM), without a hit: at the highest dose activity change, negative = inhibition, hits mostly inhibitors. 310,000 tested, 0.63% active; active = well fitted inhibition curve with a large enough effect; inconclusive = small, poorly fitted or top-dose-only effect; inactive = no such curve, though single readings can be large or run the other way; tested in A549 cells; also: nearly all actives have a fitted effect of over 35% in size; inactives centre near -10
VACV Venus inh = qHTS for Stage-Specific Inhibitors of Vaccinia Orthopoxvirus: Venus Reporter Primary qHTS | Vaccinia virus Venus reporter expression, fluorescence | AID 720580, 2013 | Potency, µM (titrated, usually from 36.5 µM), without a hit: at the highest dose activity change, negative = inhibition, most hits filed as inhibitors | 330,000 tested, 0.46% active; active means well fitted inhibition curve with a large enough effect; inconclusive means small, poorly fitted or top-dose-only effect; inactive means no such curve, though single readings can be large or run the other way; tested in A549 cells; also: nearly all actives have a fitted effect of over 30% in size; inactives centre near -10
An asterisk follows results filed as active; i = inactive; ? = inconclusive; . = not tested or not shown; [ ] = remark or other dose. % is scaled to controls: 0 for no effect and ±100 for the full control effect; potency is read from the fitted curve at half-maximal effect.

SMILES	Vaccinia mCherry	VACV Venus inh
CCOc1ccc(N2CC(C(=O)Nc3nnc(Cc4ccc(OC)cc4)s3)CC2=O)cc1 (stereo not drawn)	6%	3%
Cc1ccc(-n2c(=O)c3ccc(C(=O)NCc4ccccc4Cl)cc3n(CC(=O)Nc3cccc(Cl)c3)c2=O)cc1	-29%	?
CCc1nc2cc(NC(=O)C3(C)CCCN(C(C)=O)C3)ccc2o1 (stereo not drawn)	21%	10%
Cc1ccc(C)c(NC(=O)Cc2coc3cc4c(cc23)CCC4)c1	-14%	-8%
CC1=NCCN1CCNC(=O)Nc1cc(C)cc(C)c1	i	-10%
CC1CCN(c2nc(NCc3ccco3)nc(N)c2[N+](=O)[O-])CC1	-23%	-22%
Cc1ccc(OCC(=O)Nc2ccc3nc(SCc4ccccc4)sc3c2)cc1	-14%	-13%
CCCCN(CCCC)C(=O)C1CCN(S(=O)(=O)c2cccc3nsnc23)CC1	-19%	-15%
CC1(C(=O)NCc2ccc(Cl)c(Cl)c2)Oc2ccccc2NC1=O (stereo not drawn)	-4%	-13%
CC(C)NC(=O)c1ccc(-c2ccc(F)c(F)c2)c2ccoc12	-13%	-12%
CCOC(=O)[C@]12CCC=C1N(Cc1ccc3c(c1)OCO3)C(=O)[C@H](CC(=O)NCc1ccc(OC)c(OC)c1)C2	11%	-10%
COC(=O)COc1cccc(/C=N/NC(=O)CCSc2ccccc2)c1	-3%	1%
Cc1ccc(NS(=O)(=O)c2ccc3c(c2)n(C)c(=O)n3C)cc1C	-25%	-11%
CCC(=O)Nc1cc(OC)c(NC(=S)Nc2ccccc2CC)cc1OC	-15%	-16%
C=CCN1C(=O)C(Cc2ccc(OCC)cc2)SC1=Nc1ccc(C(=O)O)cc1 (stereo not drawn)	-15%	-14%
O=C(Nc1ccc(N=Nc2ccccc2)cc1)c1ccc(Cl)cc1Cl	-14%	-10%
O=C(CSc1nnc(Cn2c(=O)sc3ccccc32)n1-c1ccccc1)Nc1nccs1	-16%	-1%
COC(=O)C1CCCCN1C(=O)c1ccc2oc(C(C)C)nc2c1 (stereo not drawn)	i	-12%
CCN(C(=O)COC(=O)c1n[nH]c2ccccc12)C1CCS(=O)(=O)C1 (stereo not drawn)	-16%	-5%
CCCCCn1c(=O)c(C(=O)Nc2ccccc2S(N)(=O)=O)c(O)c2ccccc21	-13%	?
COc1cc([N+](=O)[O-])ccc1NC(=O)CN1C(=O)NC2(CCCCC2C)C1=O (stereo not drawn)	-11%	-9%
CN(C)C(CNC(=O)c1ccc(S(=O)(=O)N(C)C)cc1)Cc1ccccc1 (stereo not drawn)	-10%	-9%
CC(C)N1CCN(Cc2cccc(-c3ccco3)c2)CC1CCO (stereo not drawn)	?	3%
CCCS(=O)(=O)NC(=O)C1(C)CCN(C(=O)c2ccco2)C1 (stereo not drawn)	31%[activator]	6%
CCC(=O)N(Cc1ccco1)c1nc(C(=O)Nc2ccc(Cl)cc2)c(C)s1	?	-26%
CCOc1ccccc1CNC(=O)c1sc2ncccc2c1-n1cccc1	-14%	-14%
CCc1nc2ccc(C(=O)Nc3ccc(NC(C)=O)cc3)cn2c1N(C)CCCc1ccccc1	i	2%
C#CCOCCOCCOCCNc1nc(N2CCN(C(=O)CCCCCCCCCCNC(=O)[C@H](CCCCN)n3cc(CCO)nn3)CC2)nc(N2CCN(C(=O)CCCCCCCCCCNC(=O)[C@H](CCCN=C(N)N)n3cc(C[C@@H](C)CC)nn3)CC2)n1	?	10µM*
COc1cc(CNC(=O)Nc2cccn3nc(COCCO)nc23)cc(OC)c1OC	-18%	-6%
Cc1nc2nc(C)c(NS(=O)(=O)c3ccc(F)cc3)c(=O)n2[nH]1	-1%	-5%
CC1=C2C3OC(=O)C(C)C3CCC2(C)C=C(Cl)C1=O (stereo not drawn)	i	-8%
CCOc1ccccc1N1C(=O)CC(Nc2ccc(N3CCOCC3)cc2)C1=O (stereo not drawn)	-4%	6%
N#C/C(=C\c1ccc(Cl)cc1)c1nc(-c2cc3ccccc3oc2=O)cs1	-6%	-3%
CCOC(=O)c1c(NC(=O)CSc2ncn[nH]2)sc(C(=O)NC)c1C	i	-3%
Cc1ccc(/C=C/C(=O)O)cc1S(=O)(=O)NCCO	.	-10%
CN(Cc1ccccc1)S(=O)(=O)c1ccc(NC(=O)c2cc(=O)c3ccccc3o2)cc1	8%	-3%
CCOC(=O)N1CCN(C(=O)COC(=O)c2cccc(S(C)(=O)=O)c2)CC1	-10%	-4%
Cc1c(Cc2ccc3c(c2)OCO3)sc(NC(=O)C2CC2)c1C(N)=O	?	?
Cc1cc(C)n2c(Nc3ccccc3)c(-c3ccccc3)nc2n1	-6%	-5%
CCN(CC)S(=O)(=O)c1cccc(C(=O)OC2CC(C)OC2=O)c1 (stereo not drawn)	i	-5%
O=C(O)CC(NS(=O)(=O)c1ccc(Br)s1)c1ccccc1 (stereo not drawn)	-11%	-6%
O=C(NCCN1CCOCC1)NC1(C(F)(F)F)Oc2ccc(Cl)cc2O1 (stereo not drawn)	?	?
O=C(CCCCn1c(=O)c2ccccc2n(Cc2ccc(F)cc2)c1=O)NCc1ccco1	.	?
O=C(Nc1ccc(-c2noc(CCc3ccccc3)n2)cc1)c1cccnc1	.	?
Cn1c(=O)c2c(SCC(=O)NCc3ccc(F)cc3)nc(-c3ccccc3Cl)nc2n(C)c1=O	-9%	-21%
CCN(C(=O)c1c(N)cnn1C)c1ccccc1	i	-9%
O=C(NCN1C(=O)C2C3C=CC(C3)C2C1=O)Nc1cccnc1 (stereo not drawn)	-11%	8%
O=C(O)c1cc(S(=O)(=O)N2CC3CC3C2C(=O)O)c(Cl)cc1Cl (stereo not drawn)	-17%	0%
O=C(CN1CCN(Cc2cccc(Cl)c2)C1=O)NCc1ccc(F)cc1	?	-12%
CCCn1c(C(O)c2cc(OC)ccc2OC)nc2ccccc21 (stereo not drawn)	-13%	-15%

Further structures
SMILES	Vaccinia mCherry	VACV Venus inh
C=C1c2c(Cl)ccc(O)c2C(O)=C2C(=O)[C@]3(O)C(O)=C(C(N)=O)C(=O)[C@@H](N(C)C)[C@@H]3[C@@H](O)C12 (stereo partly drawn)	-25%	?
Cc1noc(C)c1C1(O)CCCCCCCCCCC1	-18%	-9%
Cc1ccc(C)c(NC(=O)Cn2c(-c3nonc3N)nc3ccccc32)c1	-12%	-14%
O=C(COc1coc(CN2CCN(c3ccccc3)CC2)cc1=O)Nc1cccc(F)c1	-4%	0%
CN(c1cccc(NC(=O)Nc2cccc(Cl)c2)c1)S(C)(=O)=O	.	?
O=C(NCCc1c[nH]c2ccccc12)c1ccco1	i	-16%
Cc1cccc(NC(=O)c2ccc(-n3cncn3)c([N+](=O)[O-])c2)c1	i	-18%
CCOc1cc(/C=N/NC(N)=O)cc(Br)c1OCC(=O)Nc1cccc2ccccc12	.	-11%
COCCNC(=O)C1(C)Cc2c(-c3cccc(C(N)=O)c3)ccnc2O1 (stereo not drawn)	11%	-1%
COC(=O)C1CCN(Cc2ccc3c(c2)CN(C(=O)c2cc4ccccc4n2C)CCO3)CC1	-12%	-5%

Next entries:
Below each compound – Vaccinia mCherry | VACV Venus inh
O=C(CSc1nc2[nH]ncc2c(=O)[nH]1)N1CCCCC1
    -9% | -12%
CC(=O)[C@@]1(O)CC[C@H]2[C@@H]3C=C(Cl)C4=CC(=O)[C@@H]5C[C@@H]5[C@]4(C)[C@H]3CC[C@@]21C
    -12% | -7%
O=C(CNCc1ccccn1)N1CCc2ccccc2C1
    i | 4%
Cc1ccc(-c2nnc(CSc3nc(C)nc4sc(C)c(C)c34)o2)cc1
    i | -7%
COc1cccc(-c2nc(=S)c3c(n2Cc2ccco2)CCCC3)c1
    i | -2%
c1ccc2c(c1)Nc1nccnc1S2
    -13% | 0%
CC(=O)C1=C(O)C(=O)N(c2nccs2)C1c1ccc(F)cc1 (stereo not drawn)
    -14% | 2%
Cc1cccc(-n2c(CCn3nc(C)c([N+](=O)[O-])c3C)n[nH]c2=S)c1
    0% | -2%
CCOC(=O)Cn1c(=O)oc2cc(S(=O)(=O)Nc3ccccc3F)ccc21
    3% | 2%
CCSc1ncc(Cl)c(C(=O)Nc2sc3c(c2C(=O)NCCCOC)CCCC3)n1
    -5%[7.34 µM] | -4%[7.34 µM]
CC1CCN(C(=O)CSc2ccc(-c3ccc(F)cc3)nn2)CC1
    -21% | -20%
O=C(Nc1cccc(F)c1)C1CCN(C(=O)N2CCOc3ccccc32)CC1
    i | -4%
CCOc1ccc(CNC(=O)c2ccc(Sc3ccc(C)cc3)c(N)c2)cc1OC
    -27% | -29%
CC(=O)C1=C(C)NC(SCC(=O)c2ccc(Cl)cc2Cl)=C(C#N)C1c1ccco1 (stereo not drawn)
    i | -3%
O=C(Nc1ccc2c(c1)COC2=O)c1ccc(Cl)c(Cl)c1
    i | -10%
CCO[C@@H]1OC(C(=O)NCc2nc3ccccc3[nH]2)=C[C@H](c2cn(C(C)=O)c3ccccc23)[C@H]1CCCO
    -1% | ?
C/C(=N\NC(=O)CSc1nnc(C)s1)c1ccc(Cl)cc1
    -13% | -12%
Cc1ccc(SCC(=O)OCC(=O)N(CC(C)C)c2c(N)n(Cc3ccccc3)c(=O)[nH]c2=O)cc1C
    -14% | -26%
Cc1cc(NC(=O)COC(=O)c2ccccc2OCCOc2ccccc2)ccc1Br
    i | -9%
S=c1nc(-c2cccc(Br)c2)[nH][nH]1
    -14% | -8%
CS(=O)(=O)c1ccc(Cl)c(NC(=O)Cc2c(F)cccc2Cl)c1
    i | 1%
COCCn1c(SCC(=O)N2CCc3ccccc3C2)nc2ccccc2c1=O
    i | -22%
CCOc1ccc(OCC)c(NC(=O)CN(c2ccc(C)cc2)S(=O)(=O)c2c(C)n[nH]c2C)c1
    -25% | -22%
CCc1nc2ccc(C(=O)Nc3cc(-c4ccccc4)ccc3OC)cn2c1N(C)Cc1ccc(Cl)cc1
    7% | -7%
C[C@@H]1CN([C@@H](C)CO)C(=O)c2cc(Br)cnc2O[C@@H]1CN(C)Cc1cncnc1
    i | -10%
CCOC(=O)c1cccc(NC(=O)C2CCC(CNc3c(N4CCOCC4)c(=O)c3=O)CC2)c1 (stereo not drawn)
    i | -19%
O=S(=O)(c1ccc(F)cc1)N1CCC(c2nc3ccccc3[nH]2)CC1
    -28% | -24%
CC(C)(Oc1ccc(Cl)cc1)C(=O)N1CCN(C(=O)c2ccco2)CC1
    3% | 3%
Cc1noc(C)c1S(=O)(=O)N(CC(=O)N1CCCCCC1)c1ccc(C(C)C)cc1
    i | -2%
CC1=C(C(=O)OCc2ccccc2)C(c2ccc(Br)cc2)NC(=O)N1CCCCCC(=O)O (stereo not drawn)
    -4% | 2%

Already shown: an excerpt of the list.
Below each compound – Vaccinia mCherry | VACV Venus inh
CC(=O)C1=C(C)NC(SCC(=O)c2ccc(Cl)cc2Cl)=C(C#N)C1c1ccco1 (stereo not drawn)
    i | -3%
O=C(Nc1ccc2c(c1)COC2=O)c1ccc(Cl)c(Cl)c1
    i | -10%
CCO[C@@H]1OC(C(=O)NCc2nc3ccccc3[nH]2)=C[C@H](c2cn(C(C)=O)c3ccccc23)[C@H]1CCCO
    -1% | ?
C/C(=N\NC(=O)CSc1nnc(C)s1)c1ccc(Cl)cc1
    -13% | -12%
Cc1ccc(SCC(=O)OCC(=O)N(CC(C)C)c2c(N)n(Cc3ccccc3)c(=O)[nH]c2=O)cc1C
    -14% | -26%
Cc1cc(NC(=O)COC(=O)c2ccccc2OCCOc2ccccc2)ccc1Br
    i | -9%
S=c1nc(-c2cccc(Br)c2)[nH][nH]1
    -14% | -8%
CS(=O)(=O)c1ccc(Cl)c(NC(=O)Cc2c(F)cccc2Cl)c1
    i | 1%
COCCn1c(SCC(=O)N2CCc3ccccc3C2)nc2ccccc2c1=O
    i | -22%
CCOc1ccc(OCC)c(NC(=O)CN(c2ccc(C)cc2)S(=O)(=O)c2c(C)n[nH]c2C)c1
    -25% | -22%
CCc1nc2ccc(C(=O)Nc3cc(-c4ccccc4)ccc3OC)cn2c1N(C)Cc1ccc(Cl)cc1
    7% | -7%
C[C@@H]1CN([C@@H](C)CO)C(=O)c2cc(Br)cnc2O[C@@H]1CN(C)Cc1cncnc1
    i | -10%
CCOC(=O)c1cccc(NC(=O)C2CCC(CNc3c(N4CCOCC4)c(=O)c3=O)CC2)c1 (stereo not drawn)
    i | -19%
O=S(=O)(c1ccc(F)cc1)N1CCC(c2nc3ccccc3[nH]2)CC1
    -28% | -24%

(list continues)
Below each compound – Vaccinia mCherry | VACV Venus inh
OCCN(Cc1ccccc1)Cc1ccccc1O
    i | -3%
Cc1ccc(Cc2nnc(SCC(=O)Nc3ccccc3)n(N)c2=O)cc1
    i | -15%
c1ccc(C(c2nnnn2C2CCCCC2)N2CCc3ccccc3C2)nc1 (stereo not drawn)
    -16% | 0%
CC1(C(=O)OCC(=O)NCc2ccc(Cl)cc2)CC1(Cl)Cl (stereo not drawn)
    0% | -11%
Cc1ccc(CN(Cc2ccco2)C(=S)NCC(=O)O)cc1
    -14% | -4%
CC(C)c1ccc(NC(=O)c2cc(S(=O)(=O)NCC3COc4ccccc4O3)ccc2F)cc1 (stereo not drawn)
    -21% | ?
COc1ccccc1OC[C@H](O)CO
    -12% | -8%
Cc1ccc(S(=O)(=O)N2C[C@H]3n4c(=O)ccc(=O)n4C[C@H](OC(=O)Nc4c(C)noc4C)[C@@]3(O)C2)cc1
    -27% | -18%
